Compound activity deposited in PubChem BioAssay by several laboratories.
CSC inhib: cancer stem cell viability inhibitors, primary screen, luminescence; 300,000 tested, 1.1% active; cancer stem cell-like cells viability; AID 2717, 2010; inhibition, % at 7.5 µM;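 active means mean at 75% or more and at least half the replicates too; inconclusive means mean and replicates disagree; tested in HMLE shEcad cells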;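 further: 0% = median of negative and 100% = median of positive control wells; the first replicate is given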
Env fusion inh: inhibitors of HIV-1 Env-driven cell-cell fusion, primary screen, HeLa-JRFL effector, CEM21 target cells, luciferase; inhibition, % at 12.3 µM; 360,000 tested, 1.1% active;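 active means mean replicate inhibition score of at least 50 and every replicate individually at or above 50; inconclusive means only one of the two criteria met; inactive means mean below 50 and not all replicates reaching 50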;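 further: 0% = plate neutral controls and 100% = maraviroc near 300 nM; one replicate is shown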
PABP FP inh: PABP poly(A) RNA binding inhibitors, primary screen, biochemical, fluorescence polarization, uHTS. 290,000 tested, 1% active. inhibition, % at 35 µM. Polyadenylate-binding protein 1 (Homo sapiens), P11940;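 active means 50% or more with normal probe brightness, or confirmed in later tests; inconclusive means above 50% with abnormal brightness, or retests that disagree; inactive means below 50% or failed in later tests; about a fifth of its hits are not listed in these tables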;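 further: calls also rest on retests at 20 µM and on dose response follow-up; controls were probe without protein and protein plus probe with vehicle; some compounds called inactive have numbers as strong as hits; many hits fall short of the cut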
Target sequence (P11940 whole entry, looked up): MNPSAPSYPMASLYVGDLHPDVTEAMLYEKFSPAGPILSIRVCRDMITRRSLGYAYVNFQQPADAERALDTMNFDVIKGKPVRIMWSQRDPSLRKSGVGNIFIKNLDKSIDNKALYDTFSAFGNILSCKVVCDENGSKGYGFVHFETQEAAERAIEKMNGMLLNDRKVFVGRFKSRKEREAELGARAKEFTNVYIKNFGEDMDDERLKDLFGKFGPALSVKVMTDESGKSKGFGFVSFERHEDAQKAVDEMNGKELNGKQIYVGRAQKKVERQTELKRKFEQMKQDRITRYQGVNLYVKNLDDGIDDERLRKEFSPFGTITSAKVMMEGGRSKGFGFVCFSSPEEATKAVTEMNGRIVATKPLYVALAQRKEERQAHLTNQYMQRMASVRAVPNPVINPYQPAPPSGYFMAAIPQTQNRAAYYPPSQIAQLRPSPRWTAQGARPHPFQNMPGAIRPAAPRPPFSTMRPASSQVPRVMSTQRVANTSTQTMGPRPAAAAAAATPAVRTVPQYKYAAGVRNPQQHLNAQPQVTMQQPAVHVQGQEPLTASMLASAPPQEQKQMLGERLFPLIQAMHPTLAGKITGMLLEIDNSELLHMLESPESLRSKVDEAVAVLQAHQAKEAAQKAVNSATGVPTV
UUG fidelity: modulators of yeast start codon fidelity, primary screen, whole organism, S. cerevisiae, single point, plate reader | S. cerevisiae UUG-firefly luciferase reporter, luminescence/redox ratio | 350,000 tested, 0.13% active | activity score, % at 18.7 µM;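 active means replicate mean at a twofold rise or more, about +100% in these data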;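 further: firefly luciferase made from a UUG start codon reports start codon fidelity; reporter light over untreated wells divided by growth signal over untreated wells; some hits fall short of that in this replicate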
MT1-MMP act inh: blockers of MT1-MMP proenzyme processing, primary screen, HT1080 RFP-PRO-GFP cells, GFP/RFP fluorescence; Matrix metalloproteinase-14 (Homo sapiens), P50281; GFP/RFP ratio fluorescence, overnight; percent of plate control window, DMSO zero; GFP/RFP ratio change, % at 20 µM; 360,000 tested, 0.061% active; AID 651647, 2012;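 active means GFP/RFP ratio change of at least 30% with cell ATP level not reduced by more than half and red fluorescence within 50% of control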; further: strong numbers were not always called active
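Assay system: HT1080 RFP-PRO-GFP cells. Benchmarks: DMSO vehicle wells and RFP-L50D-GFP reporter cell wells. Times: overnight cell settling, then overnight compound exposure, 37 °C, 5% CO2. Compound: 20 µM single dose, 1% DMSO. Read-out basis: GFP/RFP fluorescence ratio.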
eIF4H inh: human eIF4H binding inhibitors, primary screen, translation initiation inhibitor project, biochemical, uHTS, fluorescence polarization; eIF4H fluorescence polarization binding assay; Eukaryotic translation initiation factor 4H (Homo sapiens), Q15056; inhibition, % at 35 µM; 290,000 tested, 0.94% active;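 active means 50% or more with normal probe brightness, or confirmed in later tests; inconclusive means above 50% with abnormal brightness, or retests that disagree; inactive means below 50% or failed in later tests; about a fifth of its hits are not listed in these tables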;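 further: calls also rest on retests at 20 µM and on dose response follow-up; 0% = protein and probe with vehicle and 100% = probe without protein; strong numbers were not always called active; many hits fall short of the cut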
Rce1 inh: yeast Rce1p protease inhibitors, primary screen, biochemical, fluorescence, cell-free homogeneous; 290,000 tested, 0.27% active; CAAX prenyl protease 2 (Saccharomyces cerevisiae (strain ATCC 204508 / S288c)), Q03530; yeast membranes, quenched prenylated peptide cleavage fluorescence; calls only; AID 2563, 2010;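 active means fall in fluorescence gain of 50% or more versus controls, with final raw signal at or below 3038400; inconclusive means same 50% fall but final raw signal above 3038400; inactive means fall in fluorescence gain under 50%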;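 further: plate controls were neutral control wells for no effect and wells lacking membranes for full effect; tested at 10 µM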
Target sequence (Q03530 whole entry, looked up): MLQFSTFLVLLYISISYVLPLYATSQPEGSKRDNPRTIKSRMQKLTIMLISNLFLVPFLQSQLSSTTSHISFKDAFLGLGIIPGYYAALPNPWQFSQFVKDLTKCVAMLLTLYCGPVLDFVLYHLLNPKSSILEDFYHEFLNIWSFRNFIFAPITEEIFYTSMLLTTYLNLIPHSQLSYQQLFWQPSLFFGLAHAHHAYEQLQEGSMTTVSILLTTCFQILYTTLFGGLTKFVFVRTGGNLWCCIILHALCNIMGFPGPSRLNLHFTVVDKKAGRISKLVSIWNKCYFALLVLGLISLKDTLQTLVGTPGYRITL
eIF4H inh retest: second read-out of eIF4H inh, no call of its own (marks repeat the call); inhibition, %; compound at 20 µM; confirmation average;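 mean of two retest wells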
PABP FP inh retest: further read-out of PABP FP inh, marked with its call; inhibition, %; compound at 20 µM; confirmation repeats;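 mean of two retest wells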
MT1-MMP act inh RFP: recorded beside MT1-MMP act inh, whose call it bears; RFP signal change, %; measured here: RFP expression control read;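 0 = vehicle wells; hits needed this value within 50% of zero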
Active calls of the source: *; i = inactive; ? = inconclusive; / = not tested or not shown; + = active, no number.

SMILES	CSC inhib	Env fusion inh	PABP FP inh	UUG fidelity	MT1-MMP act inh	MT1-MMP act inh RFP	eIF4H inh	Rce1 inh	others
COc1ccc(NC(=S)Nc2cc(S(=O)(=O)N3CCCCC3)ccc2OC)cc1	10	/	8	/	/	/	16	i
O=C(COC(=O)C1Cc2ccccc2CN1C(=O)c1ccccc1Cl)Nc1ccc(N2CCOCC2)cc1 (centres undefined)	5	/	-7	11	14	2	-3	i
CS(=O)(=O)Nc1ccc(C(=O)NCc2ccccn2)cc1	0	/	2	-16	-2	2	-3	i
COc1ccc(C(=O)COC(=O)/C=C/c2ccccc2[N+](=O)[O-])cc1	5	-120	/	-6	7	0	/	/
COc1ccc(CNc2nc3ccccc3n2C)c(OC)c1	15	-30	3	/	2	0	-6	i
COc1ccc(C(=O)N2CCCC(C(N)=O)C2)cc1S(=O)(=O)N1CCOCC1 (centres undefined)	/	0	/	-18	-1	-1	/	/
COc1cc2[nH]c(=S)nc(NCc3ccccn3)c2cc1OC	/	-40	0	/	2	-1	44	/
COc1cccc(NC(=S)N(Cc2ccc(C(=O)O)cc2)Cc2ccc(OC)c(OC)c2)c1	/	10	27	-15	1	3	-9	i
CCOc1ccc(CCNC(=O)c2cccc(S(=O)(=O)N3CCOCC3)c2)cc1OCC	-3	0	/	-5	3	-5	/	i
O=C(CSC1=NCCS1)NC1CCCC1	-9	-185	2	0	-3	0	-7	i
Cc1ccc(N2C(=O)c3ccccc3C2(O)c2ncc[nH]2)cc1 (centres undefined)	11	/	-4	/	-2	5	4	i
O=C(CCC(=O)OCC(F)(F)C(F)F)Nc1ccc(Cl)cc1	-12	-40	3	-19	2	3	8	i
Cc1cccc(C2(c3cccc(C)c3)CC2C(=O)NCC2CCCO2)c1 (centres undefined)	-14	-2	4	5	2	-1	-1	i
N#Cc1cccc(NC(=O)CSc2cccc[n+]2[O-])c1	-21	2	/	/	3	2	/	/
CC(=O)c1c(C)nc(-c2ccc(Cl)cc2)nc1N	-22	-34	4	/	0	-4	10	i
Cc1ccc(NC(=O)CNC(=O)c2ccco2)nc1	-11	-84	-8	-17	-1	-1	-7	i
Cn1ccnc1C(O)c1cccc(OCc2ccccc2)c1 (centres undefined)	-11	-28	8	-11	-3	-2	-9	i
COc1ccc(NC(=O)CSc2nnc3ccc(-c4ccccn4)nn23)cc1OC	-6	-41	/	-13	3	4	/	i
Cc1ccc(-c2ocnc2C(=O)N2CCOCC2)cc1	-18	11	0	2	0	3	4	i
O=C(CC1Nc2ccccc2NC1=O)Nc1cc(Cl)cc(Cl)c1 (centres undefined)	-9	-59	2	/	-1	-2	-6	i
O=C(CCN1C(=O)/C(=C/c2cccs2)SC1=S)Nc1ccccn1	-5	9	2	/	-20	5	?	i
CC(=O)c1cccc(NC(=O)Nc2ccc(C(=O)N3CCCC3)cc2)c1	-2	/	13	/	-10	-12	6	i
CC(=O)OC1CSc2nc3ccccc3n2C1 (centres undefined)	-2	-18	-8	-17	1	1	-10	i
Cc1ccc(N2CC(C(=O)Nc3nnc(SCC(=O)NCC4CCCO4)s3)CC2=O)cc1 (centres undefined)	-5	8	-10	-6	0	3	-10	i
COc1ccc(C2N(c3cc(Cl)ccc3OC)C(=O)C3CCCN32)cc1OC (centres undefined)	-9	22	15	-15	-3	-7	-11	i
CC(=O)c1c(C)[nH]c(C(=O)NCCCN2CCCC2)c1C	8	-2	-14	20	0	-2	-4	i
O=C(NNC(=O)C1CCCN(c2ncccn2)C1)c1ccc(F)cc1 (centres undefined)	/	/	8	-6	4	7	-1	i
O=C(CSc1nc2ccccc2c(=O)n1-c1ccc(SC(F)F)cc1)Nc1ccc(N2CCOCC2)cc1	-6	-8	11	-20	-15	-6	2	i
O=C(CSc1ncccc1C(=O)O)NC12CC3CC(CC(C3)C1)C2	-11	13	40	/	1	2	11	i
COc1ccc(C2OC(=O)c3ccccc3S2)cc1 (centres undefined)	1	-57	-3	-15	-3	2	-10	i
Cc1ccc(C(=O)CSc2nnc(CNc3ccc(C)cc3C)n2Cc2ccco2)cc1	-12	0	-5	-23	8	-3	-5	i
COC(=O)C(Nc1nccs1)(OC)C(F)(F)F (centres undefined)	4	23	31	-16	6	4	34	i
COCCNC(=O)C(=O)N/N=C/c1ccc(C(=O)OC)cc1	-6	25	-8	/	2	5	-7	i
COc1ccc(S(=O)(=O)Nc2ccc(F)c(F)c2)cc1C(=O)N1CCOCC1	28	3	1	6	-1	0	7	i
COc1cc(C2/C(=C(\O)c3ccc4c(c3)OCCO4)C(=O)C(=O)N2Cc2ccco2)cc(OC)c1OC (centres undefined)	2	1	1	-7	-4	-1	-7	i
Cc1ccc(O)c(NC(=O)CCCC(=O)O)c1	-15	/	16	-8	-6	12	12	i

Reprinted from the part before: five compounds, followed by the next part.
SMILES	CSC inhib	Env fusion inh	PABP FP inh	UUG fidelity	MT1-MMP act inh	MT1-MMP act inh RFP	eIF4H inh	Rce1 inh	others
COC(=O)C(Nc1nccs1)(OC)C(F)(F)F (centres undefined)	4	23	31	-16	6	4	34	i
COCCNC(=O)C(=O)N/N=C/c1ccc(C(=O)OC)cc1	-6	25	-8	/	2	5	-7	i
COc1ccc(S(=O)(=O)Nc2ccc(F)c(F)c2)cc1C(=O)N1CCOCC1	28	3	1	6	-1	0	7	i
COc1cc(C2/C(=C(\O)c3ccc4c(c3)OCCO4)C(=O)C(=O)N2Cc2ccco2)cc(OC)c1OC (centres undefined)	2	1	1	-7	-4	-1	-7	i
Cc1ccc(O)c(NC(=O)CCCC(=O)O)c1	-15	/	16	-8	-6	12	12	i
COc1cc(OC)c(OC)cc1CN1CCCC(C(=O)c2sccc2C)C1 (centres undefined)	0	-2	11	-14	-5	0	13	i
CC(NC(=O)CN(C)CC(=O)Nc1ccc(F)c(F)c1F)c1ccccc1 (centres undefined)	7	-13	0	/	1	7	-2	/
Cc1ccccc1-c1nc2ccccc2c(=O)n1C1CCS(=O)(=O)C1 (centres undefined)	-1	8	7	-6	-4	1	-11	i
Brc1ccc(OCCCOc2cccc3cccnc23)cc1	11	3	1	-5	1	-3	-1	i
CCC(C)NC(=O)c1ccc(CSCc2cccc(F)c2)o1 (centres undefined)	/	/	23	-19	-2	-1	-1	i
Cc1ccc(-c2nnc(SCC(=O)N/N=C/c3c(C)nn(-c4ccccc4)c3C)n2-c2ccc(C)cc2)cc1	13	-95	-11	/	-9	-14	-11	i
Cc1cc(C)cc(NC(=O)CSc2nc3c(c(=O)n2C)SC(C)C3)c1 (centres undefined)	-8	0	-5	3	-2	-6	9	i
Cc1nn(C)cc1/C=N\NC(=O)Cc1ccc([N+](=O)[O-])cc1	-15	19	-10	/	2	3	-7	i
CCOc1ccc2nc(C)cc(Nc3ccc4c(c3)OCCO4)c2c1	1	-34	-2	-17	6	2	-16	i
FC(F)(F)c1cccc(CC2CN(Cc3ccccc3)Cc3ccccc3N2c2cc(Cl)cc(Cl)c2)c1 (centres undefined)	/	-55	/	-8	4	3	/	/
S=C(Nc1ccc(Oc2ccc(NC(=S)NC3CCCCC3)cc2)cc1)NC1CCCCC1	7	/	73	/	0	-16	-3	i	eIF4H inh retest=-15;PABP FP inh retest=5
Cc1ccc(C(=O)NCC(=O)NCCCc2ccccc2)s1	7	-4	0	1	-1	1	-11	/
CCOC(=O)c1ccc2c(c1)N(Cc1ccccc1C)C(=O)c1ccccc1S2=O (centres undefined)	10	3	/	-16	-26	-21	/	i
Cc1ccc(S(=O)(=O)Nc2cccnc2)cc1	-1	-12	5	-1	3	3	5	/
CC(C)(C)n1nnnc1C(c1ccccc1F)N1CCN(C2CCCC2)CC1 (centres undefined)	/	/	-10	-2	-2	3	-5	i
Cc1c(C(=O)Nc2ccc3c(c2)OCCO3)sc2ncnc(N3CCCCC3C)c12 (centres undefined)	41	14	8	17	8	-10	-11	i
CCCC(=O)NC(=S)Nc1cccc2c(O)cccc12	-2	5	-5	-30	-24	-6	37	i
O=C1NC(c2ccc(O)cc2)Nc2ccccc21 (centres undefined)	1	-12	18	-12	1	2	-2	i
COc1ccc(CN2C(=O)c3ccccc3C2C(=O)NCC2CCCO2)c(OC)c1 (centres undefined)	-6	/	1	-24	4	3	1	i
CCOC(=O)C1CCN(c2nc(-c3ccccc3)nc3c2oc2ccccc23)CC1	-10	/	-6	/	-2	-5	-6	i
CCNC(=S)N(CCN(CC)CC)Cc1cc2cc3c(cc2[nH]c1=O)OCCO3	-9	-18	4	-22	-4	0	0	i
N=c1c2c3c(sc2ncn1N)CCC3	-14	15	-2	-29	-2	3	-5	i
C/C(=N\NC(=O)Cn1ccc(C(F)(F)F)n1)c1ccc2c(c1)OCO2	3	-21	0	/	3	3	-8	i
CC(=O)NC(CC(=O)NC1CCCc2ccccc21)c1ccccc1 (centres undefined)	-6	-11	5	10	-2	0	-12	i
CCC(=O)N1CCN(c2ccc(NC(=O)c3ccc(N4CCOCC4)c([N+](=O)[O-])c3)cc2)CC1	6	24	-8	-5	3	-4	-6	i
Cc1cc(S(=O)(=O)NCC(c2ccc3c(c2)OCO3)N2CCOCC2)ccc1F (centres undefined)	15	13	/	-15	3	-3	/	i
CCc1ccc(Nc2n[n+](-c3ccccc3)c(/C=C/c3ccccc3)s2)cc1	13	/	-1	/	/	/	-9	+
C=CCc1ccccc1OCC(O)CN1CCOCC1 (centres undefined)	-4	-3	/	-12	3	4	/	i
C=CCOc1ccc2c(CC)cc(=O)oc2c1C	-2	-38	-2	2	-5	-8	10	i
Cc1ccc(C2/C(=C(/O)c3cnn(-c4ccccc4)c3C)C(=O)C(=O)N2CCN2CCOCC2)o1 (centres undefined)	-2	/	31	3	0	1	9	i
CCc1ccccc1OCC(=O)Nc1ccc(S(N)(=O)=O)cc1	-3	-75	-1	-11	15	6	-3	i
O=C(Nc1ccncc1)Nc1ccc(Br)cc1Cl	13	-5	-11	1	-6	-3	-7	i
O=c1[nH]c(-c2ccccc2)ncc1Oc1ccccc1	-3	4	/	-20	0	3	/	i
CC1CCN(C(=O)CCc2nnc3ccc(N4CCC5(CC4)OCCO5)nn23)CC1	-24	3	4	-10	7	6	-8	i
CC(NC(=S)Nc1ccccc1Cl)C(c1ccccc1)N1CCOCC1 (centres undefined)	7	17	49	-15	0	0	8	i
Cc1cc(C)cc(OCc2nnc(SCC(=O)c3ccc(Br)cc3)o2)c1	-2	/	-10	-19	7	-2	-9	i
CCOc1ccc(-c2nc(CSc3nncs3)cs2)cc1OC	46	-1	5	-12	1	-1	2	i
CCn1c(SCc2ccccc2)nnc1-c1cccnc1	-10	-18	-4	/	3	5	1	i
CC(C)C(=O)Nc1ccc(N2CCCC2)cc1	-4	/	18	/	0	2	2	i
